Autofluor counter: compound fluorescence in toxin protease inhibitor counterscreen; compound autofluorescence counterscreen, microsphere flow cytometry; active compounds read high; fluorescence intensity (test concentration not listed); 3.1% of 360,000 active; AID 624483;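 active = at least 3 SD above the mean of all compounds, about 16000 in these data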;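 also: 100 nL of 1 mM stock went into each well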
PrP UTR inh: suppresses PrP 5' UTR mRNA reporter expression; cell-based PrP 5' UTR mRNA reporter, plate reader; 0.35% of 340,000 active; inhibition, % (test concentration not listed); AID 488862;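 active = every replicate at 50% or more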;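 also: 0 = median of the neutral control wells; tested in H4 reporter cells; numbers are from one replicate; inactives centre near -14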
* hit, by the source's call; & = joins results of further samples.

SMILES	Autofluor counter	PrP UTR inh
O=[N+]([O-])c1cccc(COc2cccc(CN3CCOCC3)c2)c1	3672	-12.3
CCC/C=N/O	5671	-3.4
O=C1C=C(c2ccc(Br)c3ccccc23)C[C@@H](c2ccc3c(c2)OCO3)C1	4114	-7.7
O=C(NCCCn1ccnc1)C1CCN(S(=O)(=O)c2cc([N+](=O)[O-])ccc2Cl)CC1	3847	-15.1
O=C1NC(=S)S/C1=C\c1ccc(SCc2ccco2)o1	9942	-18.4
COc1ccc(/C=N/NC(=O)CNS(=O)(=O)c2ccccc2)cc1	4853	-20.6
COc1ccccc1NC(=O)CSc1n[nH]c(-c2ccco2)n1	3587	-9.2
CC1=CC(=O)[C@@H](O)[C@@H](c2ccccc2Br)N1C	3451	-23.4
CCOC(=O)[C@@H]1[C@H]2COc3ccc(Br)cc3[C@H]2N2C(=O)N(c3cccc(C)c3)C(=O)[C@]12C	3474	-6.6
C[C@H](CO)N1C[C@H](C)[C@@H](CN(C)C(=O)Nc2ccc(C(F)(F)F)cc2)Oc2c(NC(=O)Nc3ccccc3)cccc2C1=O	3688	-23.0
CCCCOC(=O)NC1CCc2cc(OC)c(OC)c(OC)c2-c2ccc(SC)c(=O)cc21 (centres undefined)	3577	38.0
CCN1C(=O)[C@H]2[C@@H](c3ccc(-c4ccc(OC)cc4)c(OC)c3)N[C@@](CC(C)C)(C(=O)OC)[C@H]2C1=O	4165	-4.8
N#C/C(=C\c1ccc(O)cc1)C(=O)O	5585&7089	-15.5
Cc1ccc(S(=O)(=O)N2[C@@H](c3ccc(F)cc3)C(C(=O)O)=CC[C@H]2c2ccc3c(c2)OCO3)cc1	4231	-7.8
COc1ccccc1CNS(=O)(=O)CCNC1CCCCC1	3720	-3.8
CC(C)(C)OC(=O)C[C@@H]1C/C=C\C[C@H](CC(=O)N(CCO)Cc2ccccc2)C(=O)NC[C@@H](c2ccccc2)OC1=O	2939	-8.3
O=C(Nc1ccccc1Cl)O/N=C/c1ccc(F)cc1	4379	-25.6
C#CCCc1ccccc1/C=[N+](/C)[O-]	4125	0.9
C[C@H](CO)N1C[C@H](C)[C@H](CN(C)S(=O)(=O)c2cn(C)cn2)Oc2ccc(NC(=O)Nc3ccc(C(F)(F)F)cc3)cc2CC1=O	3874	10.8
Cc1cccc(CCN2C(N(C)C)=NC[C@@H]2CC(C)C)c1	4386	-16.1
C#CCOCCOCCOCCNc1nc(N2CCN(C(=O)Cn3cc(CCCN=C(N)N)nn3)CC2)nc(N2CCN(C(=O)[C@H](CCCCN)n3cc(CCC(=O)O)nn3)CC2)n1	3822	-9.1
O=C1NC[C@H](Cc2ccccc2)N(CC2CCN(CCCCc3ccccc3)CC2)C1=O	4168	-14.5
COP(=O)(OC)c1ccc(NCc2cc(O)ccc2O)cc1	4214	-9.4
CCOC(=O)c1ccccc1NC(=O)CSc1nc2c(sc(=S)n2CC)c(=O)[nH]1	4945	-29.1
CCOC(=O)[C@H]1[C@H]2COc3cc(OC)ccc3[C@@H]2N2C(=O)CN(Cc3ccc(OC)cc3)C(=O)[C@@]12C	3153	29.2
COc1ccc(CNS(=O)(=O)CCNCc2ccccc2OC)cc1	3797	-11.2
O=C(c1n[nH]c(=O)c2ccccc12)N1CCN(S(=O)(=O)c2ccccc2Cl)CC1	2849	16.4
COc1cc(/C=C/c2cc(C(F)(F)F)[nH]c(=O)n2)cc(OC)c1OC	3848	-20.5
COC(=O)C1=C(c2ccc(Cl)c(C(F)(F)F)c2)C[C@@H]2CC[C@H]1N2C(=O)NCCNC(C)=O	3507	-15.0
O=C(OCCC12CC3CC(CC(C3)C1)C2)c1ccc(NCc2cc(O)ccc2O)cc1	3129	-2.2
O=C(Nc1cccc(C(=O)N2CCCC2)c1)C1CCC1	3027	-10.6
CC(C)(C)OC(=O)C[C@H]1C/C=C\C[C@H](CC(=O)NCCO)C(=O)N[C@@H](Cc2ccccc2)COC1=O	3892	-14.6
CCCCNCCS(=O)(=O)NCc1ccc(OC)cc1	3576	-14.2
CCOC(=O)CN[C@H]1CCC2C3CC=C4C[C@@H](O)CC[C@]4(C)C3CC[C@@]21C (some centres undefined)	4397	-10.4
O=C(NC1CC1)c1ccc(NC(=O)C2CCCCC2)cc1	3554	-27.1
O=C1c2ccccc2C(=O)N1CCC1(O)C(c2ccccc2)=Nc2ccccc21 (centres undefined)	4076	-10.7
Cc1cc2oc(=O)cc(-c3ccccc3)c2c(C)c1-c1ccc(OC(F)(F)F)cc1	3664	-7.7
CC(C)NC(=O)N(C)C[C@H]1Oc2ccc(NC(=O)c3ccncc3)cc2C(=O)N([C@H](C)CO)C[C@@H]1C	2930	9.2
CC(C)=C[C@@H]1C[C@H](C)[C@H]2CC[C@H](C)c3c(O)c(O)c(C)c1c32	3027	-23.2
COc1cc(/C=C/C(=O)Nc2ccc(S(=O)(=O)Nc3onc(C)c3C)cc2)cc(OC)c1OC	3978	-13.5
CC[C@H]1CN2CCC1C[C@H]2[C@H](O)c1ccnc2ccc(OC)cc12 (some centres undefined)	4358	2.0
Nc1nc(N)nc(-c2cccc(Br)c2)n1	3067	-75.4
Cc1cc(-c2nc3ccccc3s2)ccc1N	3699	28.3
NC(=S)NN=C1c2ccccc2-c2cc(Br)ccc21	3577	-4.7
C[C@@H]1COC(=O)[C@H](CC(=O)OC(C)(C)C)C/C=C\C[C@H](CC(=O)N(CCO)Cc2ccccc2)C(=O)N1	2954	-22.3
CC(C)(C)OC(=O)N(CCc1ccccc1)Cc1ccc(OCc2cccc(NC(=O)C3CC3)c2)cc1	3302	-21.4
CNC1(C)[C@H]2CC[C@H](C2)C1(C)C (some centres undefined)	6315	-3.6
Cc1ccccc1Oc1ccc2c(c1)[C@@H]1C[C@H](N(C)C(=O)c3ccc(C#N)cc3)[C@H]([C@H](C)O)C(=O)N1CC2	3786	15.3
COC(=O)C1=C(c2ccc(OCc3ccccc3)cc2)C[C@@H]2CC[C@H]1N2C(=O)NCc1cccc(C(F)(F)F)c1	3285	-12.9
CC(C)(C)OC(=O)C[C@@H]1C/C=C\C[C@H](CC(=O)NCCO)C(=O)NC[C@@H](c2ccccc2)OC1=O	3692	-17.6
CCOC(=O)[C@H]1[C@H]2COc3ccc(OC)cc3[C@@H]2N2C(=O)CN(Cc3ccco3)C(=O)[C@@]12C	3946	-26.7
C[C@H](CO)N1C[C@H](C)[C@@H](CN(C)Cc2ccc(-c3ccccc3)cc2)Oc2c(NS(=O)(=O)c3ccccc3)cccc2C1=O	2716	-15.7
O=C(CN1C(=O)NC(Cc2c[nH]c3ccccc23)C1=O)Nc1ccccc1C(F)(F)F (centres undefined)	5921	0.6
C#CCOCCOCCOCCNc1nc(N2CCOCC2)nc(N2CCN(C(=O)CCCCCCCCCCNC(=O)[C@H](CO)n3cc(CCCSC)nn3)CC2)n1	3550	-26.3
CC(C)n1cc(/C=N\NC(=O)c2cc3c(ccc4ccccc43)o2)c2ccccc21	3289	-14.3
C=CC[C@@H](CC(=O)N[C@H](CO)Cc1ccccc1)C(=O)NCCOC(=O)[C@@H](CC=C)CC(=O)OC(C)(C)C	4007	-20.9
CC(C)(C)NCC(=Cc1ccccc1)C(=O)c1ccccc1	3965	-41.1
C#CCN1C=CC(=O)[C@@H](OC(=O)Nc2ccccc2Br)[C@H]1c1ccccc1Br	3778	-18.8
CC1=C(C)CC2(CC1)C(=O)NC(=O)NC2=O	3796	-21.1
COC(=O)C1=C(c2c(C)noc2C)C[C@@H]2CC[C@H]1N2C(=O)NCCOc1ccc(OC)cc1	2902	-14.2

Laid out differently: entries from further up.
mol | Autofluor counter | PrP UTR inh
COC(=O)C1=C(c2ccc(OCc3ccccc3)cc2)C[C@@H]2CC[C@H]1N2C(=O)NCc1cccc(C(F)(F)F)c1 | 3285 | -12.9
CC(C)(C)OC(=O)C[C@@H]1C/C=C\C[C@H](CC(=O)NCCO)C(=O)NC[C@@H](c2ccccc2)OC1=O | 3692 | -17.6

Additional structures.
SMILES	Autofluor counter	PrP UTR inh
COc1ccccc1-c1sc2cc3c(cc2c1C#CC1(O)CCCCC1)OCO3	3983	-10.8
Cc1ccccc1-c1cccc([C@@H]2C[C@H]3[C@H](CON3C)CN2C)c1	4177	-5.1
COc1ccc(-c2ccc(C(C)=O)cc2)cc1[C@H]1[C@@H]2C=CCC[C@@]2(C)C(=O)N1Cc1ccccc1	3021	-18.6
CC[C@]12C(=O)N(C)C[C@H]([C@@H]3C(=O)N(Cc4ccccc4)C(=O)[C@@H]31)N2C(=O)c1ccc(Br)cc1	3870	2.1
COC(=O)c1ccc(C)cc1C1CN=NC12Cc1cc(C)ccc1C2=O (centres undefined)	3019	-8.2
CCOc1ccc(/C=N/NC(=O)c2ccccc2C)cc1CN1CC2CC(C1)c1cccc(=O)n1C2 (centres undefined)	5741	-2.5
O=C(Oc1ccccc1)c1ccccc1C(=O)Oc1ccccc1	4045	-1.8
CC[C@@H](C)[C@@H]1CN([C@@H](C)CN2CCC[C@H]2CN2C(N)=NC[C@H]2CC(C)C)C(=N)N1CCCC1CCCC1	3812	-25.1
O=C1c2nccnc2C(=O)N1c1ccc(F)cc1	4051	-7.1
C#CCOCCOCCOCCNc1nc(N2CCN(C(=O)CCCCCCCCCCNC(=O)Cn3cc(CCCCCN)nn3)CC2)nc(N2CCN(C(=O)CCCCCCCCCCNC(=O)[C@H]([C@@H](C)CC)n3cc(CCCCCN)nn3)CC2)n1	4705	-16.1
O=Cc1ccc(F)c([B-](F)(F)F)c1	3229	-17.7
Cc1ccc(NS(=O)(=O)c2cccc(C(=O)N3CCN(c4ncccn4)CC3)c2)cc1	3862	-13.7
O=C(Nc1ccc(C(=O)N2CCOCC2)cc1)c1ccccc1	3431	-6.1
COc1ccc(C(=O)Nc2cccc(S(=O)(=O)N(C)C)c2)cc1S(=O)(=O)N1CCOCC1	4915	-27.9
COC(=O)C(C(=O)OC)C1C=CCN(C(C)=O)C1 (centres undefined)	3786	-12.6
Cc1ccc(C2=C(O)C(=O)C(c3ccc(C)cc3)=C(O)C2=O)cc1	3696	37.6
C#CCN1C=CC(=O)[C@@H](OC(=O)Nc2ccc(Br)cc2)[C@H]1c1ccccc1Br	3797	-22.2
C/C(=N\NC(=O)C1CCCC1)c1ccc(Cl)c(Cl)c1	6384	-6.6
c1nc(SSc2ncnc3nc[nH]c23)c2[nH]cnc2n1	4463	7.9
COc1cc(C2C(c3ccccc3)C(c3cc(OC)cc(=O)o3)C2c2ccccc2)oc(=O)c1 (centres undefined)	5640	-10.4
CC1(O)CC2CC1C(C(=O)O)C2C(=O)O (centres undefined)	4045	-12.3
O=C(O)c1cccc2c1-c1ccc([N+](=O)[O-])cc1C2=O	3925	-34.6
COc1ccc(C(=O)COC(=O)c2cncc(Br)c2)cc1	4178	-20.0
Oc1ccccc1C=NN=Cc1c(O)ccc2ccccc12	2774	0.7
COC(=O)CC1(CC(N)=O)SCCS1	2905	-46.9
C#CCOCCOCCOCCNc1nc(N2CCN(C(=O)CCCCCCCCCCNC(=O)Cn3cc(C[C@@H](C)O)nn3)CC2)nc(N2CCN(C(=O)CCCCCCCCCCNC(=O)Cn3cc(C[C@@H](C)O)nn3)CC2)n1	3535	-41.5
COC(=O)C1=C(c2ccc(-c3ccccc3)c(F)c2)C[C@@H]2CC[C@H]1N2C(=O)N1CCC(C)CC1	4088	-22.6
O=C(CSc1nc2ccccc2o1)Nc1nc2c(s1)CCCC2	4455	-19.7
CC1CNCCN1c1ccc(Cl)cc1 (centres undefined)	4046	-8.4
CC(C)(C)OC(=O)C[C@H]1C/C=C\C[C@@H](CC(=O)N[C@@H](CO)Cc2ccccc2)C(=O)NCCOC1=O	3778	-9.8
CCN1C(=O)[C@H]2[C@@H](c3ccc(-c4ccc5c(c4)OCO5)c(OC)c3)N[C@@](C)(C(=O)OC)[C@H]2C1=O	2925	-7.5
C#CCOCCOCCOCCNc1nc(N2CCN(C(=O)[C@H](CC(N)=O)n3cc([C@@H](N)CC(N)=O)nn3)CC2)nc(N2CCN(C(=O)[C@H](CC(N)=O)n3cc([C@@H](N)CC(N)=O)nn3)CC2)n1	2675	-2.0
Cc1csc(NC(=O)CSc2nc3[nH]c(=O)cc(O)c3s2)n1	4353	-28.1
O=C(C=P(c1ccccc1)(c1ccccc1)c1ccccc1)c1ccccc1-c1ccccc1C(=O)C=P(c1ccccc1)(c1ccccc1)c1ccccc1	2878	3.2
Nc1ccc2c(c1)C(O)c1cccc(C(=O)O)c1-2 (centres undefined)	3347	-27.6
Cc1noc(C)c1NC(=O)N(C)C[C@H]1Oc2ccc(NC(=O)NC3CCCCC3)cc2C(=O)N([C@H](C)CO)C[C@@H]1C	4053	-6.0
CN1CCN(c2ccc([N+](=O)[O-])c(N/N=C3\CN4CCC3CC4)c2)CC1	20912*	-0.7
COc1cccc(-c2noc(-c3ccc(Br)o3)n2)c1	4660	-70.9
CC(C)(C)OC(=O)N[C@@H](C(=O)OC(C)(C)C)c1ccc(C(F)(F)F)cc1	3489	-22.2
COc1ccc(NC(=O)N(C)C[C@H]2Oc3ccc(NC(=O)CCC(F)(F)F)cc3C(=O)N([C@H](C)CO)C[C@@H]2C)cc1	3951	-9.7

Reformatted: entries from further up.
CC1CNCCN1c1ccc(Cl)cc1 (centres undefined)
  Autofluor counter: 4046
  PrP UTR inh: -8.4
C#CCOCCOCCOCCNc1nc(N2CCN(C(=O)[C@H](CC(N)=O)n3cc([C@@H](N)CC(N)=O)nn3)CC2)nc(N2CCN(C(=O)[C@H](CC(N)=O)n3cc([C@@H](N)CC(N)=O)nn3)CC2)n1
  Autofluor counter: 2675
  PrP UTR inh: -2.0
COC(=O)CC1(CC(N)=O)SCCS1
  Autofluor counter: 2905
  PrP UTR inh: -46.9
COC(=O)C1=C(c2ccc(-c3ccccc3)c(F)c2)C[C@@H]2CC[C@H]1N2C(=O)N1CCC(C)CC1
  Autofluor counter: 4088
  PrP UTR inh: -22.6

Later entries
SMILES	Autofluor counter	PrP UTR inh
CCC[C@@H]1Cc2ccccc2N1C(C)=O	3883	-6.6
CCCCCCCCCCCCCCCC[n+]1ccc(/C=N/O)cc1	2110	2.9
C[C@]1(O)CC(=O)C=C[C@H]1Nc1ccccc1	3884	-22.8
CC[C@@H](NC(=O)Cn1cc(C)c(=O)[nH]c1=O)c1ccccc1	3626	-0.8

Bioassay records (PubChem BioAssay)

The list is partial. The share of hits here may be higher or lower than overall.
